# AF4-AF9 inh: blocks AF4 peptide binding to human AF9; inhibition, % at 10 µM; AlphaScreen, biotin-AF4 peptide binding to FLAG-AF9; AID 651704; 350,000 compounds, 0.47% hits;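 active means every replicate reaching a set inhibition limit, whatever the replicate mean, cut at about 25% in these data; inconclusive means mean inhibition reaches that limit but some replicates miss it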;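 further: 0% = plate neutral control median and 100% = total signal loss; the record names both 10 and 1 µM as test concentration; the first replicate is given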
# Target sequence (P42568 whole entry, looked up): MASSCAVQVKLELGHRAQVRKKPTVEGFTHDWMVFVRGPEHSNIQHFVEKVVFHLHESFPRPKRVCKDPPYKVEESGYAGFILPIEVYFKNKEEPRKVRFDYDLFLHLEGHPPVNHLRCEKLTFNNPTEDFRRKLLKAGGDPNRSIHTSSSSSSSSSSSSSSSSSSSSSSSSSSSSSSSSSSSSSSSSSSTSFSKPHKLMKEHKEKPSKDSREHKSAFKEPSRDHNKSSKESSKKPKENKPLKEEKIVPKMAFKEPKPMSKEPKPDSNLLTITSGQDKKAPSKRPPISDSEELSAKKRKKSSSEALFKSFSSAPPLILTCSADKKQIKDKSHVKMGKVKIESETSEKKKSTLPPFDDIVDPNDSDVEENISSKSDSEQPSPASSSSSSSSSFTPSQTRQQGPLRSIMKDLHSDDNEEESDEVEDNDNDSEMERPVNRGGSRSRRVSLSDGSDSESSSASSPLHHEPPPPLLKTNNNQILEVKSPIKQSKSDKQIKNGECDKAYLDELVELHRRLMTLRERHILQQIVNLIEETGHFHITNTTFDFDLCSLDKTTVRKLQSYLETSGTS
# Vif A3G: inhibitors of Vif binding to APOBEC3G peptide, primary screen, biochemical, TR-FRET, GST-Vif 1-94, biotin-A3G peptide, dose response retest (AID 1117319). TR-FRET GST-Vif / biotin-A3G peptide binding; higher % means a stronger effect; test concentration not given here; strong numbers were not always called active. inhibition, %; hits with a dose series show IC50 in µM. 260,000 compounds, 0.57% hits;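 active means above the screen mean plus three standard deviations and confirmed in dose response; inconclusive means results disagree or hit not tested in dose response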;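 further: Vif residues 1-94 fused to GST binding biotinylated APOBEC3G peptide 110-148; 0% = full assay without inhibitor and 100% = GST in place of GST-Vif; retest series ran down from 100 µM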
# rRNA inh HTS: inhibits bacterial ribosomal RNA function over humanized ribosomes | GFP signal change (wild-type ribosome), % (no concentration beside the values) | 350,000 compounds, 1.6% hits | E. coli WT GFP vs humanized-ribosome RFP mutants, fluorescence, 24 h; stronger effect = lower value; DMSO median 0, no signal -100;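 active means significant combined selectivity score with lowered wild-type GFP, culture density cut under 30%, mutant RFP and density less affected; inactive means any of these conditions unmet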; further: one replicate is shown; some compounds called inactive have numbers as strong as hits
# RanGTP-Impb inh: disruptors of Ran-importin-beta complex formation – biochemical, FRET, CFP-Ran, YFP-importin-beta, homogeneous, primary screen | cell-free CFP-Ran/YFP-importin-beta FRET ratio | inhibition, % (concentration not given with the values) | 300,000 compounds, 1.1% hits | AID 2216;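 active means most replicates above 15%; inconclusive means exactly half above 15%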;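 further: 0% = DMSO wells and 100% = Ran loaded with GDP instead of GTP; wells of about 40 µL received 100 nL stock; the first replicate is given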
# Calb FLC: affects C. albicans growth with fluconazole. C. albicans CaCi-2 (fluconazole-resistant clinical isolate) + fluconazole, Alamar Blue growth, 48 h. growth inhibition, % (test concentration not listed). 300,000 compounds, 0.57% hits. AID 1979;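 active means most replicates above 75%; inconclusive means exactly half above 75%; inactive means most below 75%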;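 further: all wells also contain fluconazole at 8 µg/ml as a sub-toxic cotreatment; 0% = median of DMSO wells and 100% = median of geldanamycin control wells; wells of about 8 µL received 7.5 nL stock; the first replicate is given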
# A1 inh: inhibitors of the anti-apoptotic protein A1, read as caspase activation; MEF A1-2A-BIM cells, Caspase-Glo 3/7 luminescence, 3 h; percent of clofoctol response, vehicle zero; caspase activation, % (test concentration not listed); 330,000 compounds, 0.066% hits;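 active means over half of replicate activation scores above 10%, or exactly half above 10 with the replicate mean above 10; inconclusive means replicate mean below 10 yet half the replicates above 10; inactive means over half of replicates below 10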;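 further: wells of about 30 µL received 50 nL stock; many hits fall short of the cut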
# Beta cell apopt: beta cell apoptosis inhibition; AID 435005; 300,000 compounds, 0.8% hits; INS-1E cytokine-induced death, ATP luminescence, 48 h; percent of positive-control rescue, neutral wells zero; protection from apoptosis, % (no concentration beside the values);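 active means all replicates at 75% or more, or half of them and the mean; inconclusive means half reach 75% but not the mean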;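 further: 0% = cytokine-treated negative control wells and 100% = positive control rescue; higher means more ATP so stronger rescue from cytokine killing; wells of about 40 µL received 100 nL stock; the first replicate is given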
# T cruzi inh: blocks replication of Trypanosoma cruzi | 300,000 compounds, 1.4% hits | AID 1885 | T. cruzi beta-gal in NIH3T3, luminescence, 90 h | inhibition, % (concentration not given with the values);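 active means mean inhibition across valid replicates above about 55%, limit read from the data; inconclusive means mean below that limit but half or more replicates reach it; inactive means mean below it, under half of replicates reach it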;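 further: signal also drops with host cell toxicity which is not excluded here; 0% = plate median of DMSO wells and 100% = zero luminescence signal; higher percent means less beta-gal luminescence so fewer parasites; stock transfer was 50 nL into about 50 µL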
# rRNA inh HTS OD600: recorded beside rRNA inh HTS, whose call it bears; OD600 change, %; measured here: OD600 growth;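 optical density of the mix in the first replicate; 0 = DMSO median and -100 = no signal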
# rRNA inh HTS RFP: second read-out of rRNA inh HTS, no call of its own (marks repeat the call); RFP signal change, %; measured here: RFP humanized mutant strains;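 first replicate; 0 = DMSO median and -100 = no signal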
# Numbers without * were called inactive; u = inconclusive; x = not tested or not shown. This is a subset; the hit share may differ from the screen's.
SMILES,AF4-AF9 inh,Vif A3G,rRNA inh HTS,rRNA inh HTS OD600,rRNA inh HTS RFP,RanGTP-Impb inh,Calb FLC,A1 inh,Beta cell apopt,T cruzi inh
CCCCNC(=O)C1CCCN(S(=O)(=O)c2ccc(-n3cnnn3)cc2)C1 (stereo not given),x,75.7%,x,x,x,-1.1,-0.9,-0.6,0.4,0.2
COc1ccc(-c2cc(C(=O)N3CCN(c4ncccn4)CC3)c3ccccc3n2)cc1,3.1,-2.0%,-14.7,-14.5,4.6,x,x,-1.1,5.7,x
CCCCOC(=O)Nc1cccc(C(=O)OCC)c1,x,0.4%,x,x,x,7.4,-0.1,0.0,-10.1,1.0
Cc1nn(Cc2ccccc2)c(=O)n1N(C)c1ncc(C(F)(F)F)cc1Cl,x,1.9%,x,x,x,1.5,-1.7,0.0,1.4,-10.2
CCOc1cc(-c2cc(-c3ccc(C)cc3)nc(N)c2C#N)ccc1O,x,15.9%,x,x,x,0.1,u,0.6,7.4,17.5
COc1cccc(NC(=O)CSc2nn3c(=O)c(C)nnc3s2)c1,-3.9,x,18.5,15.5,4.9,0.5,-8.5,-0.4,-3.7,-1.6
CN(c1ccc(C(=O)O)cc1)S(=O)(=O)c1ccc(Cl)cc1,x,-1.8%,x,x,x,-1.3,1.6,-0.1,-12.6,-22.4
COc1ccc(OC)c(NC(=O)C2CCCCC2C(=O)O)c1 (stereo not given),x,5.6%,x,x,x,0.5,-2.7,-0.5,2.2,-4.5
Cc1ccc(NS(=O)(=O)c2ccc(OCC(=O)NCc3ccco3)cc2)cc1,x,3.3%,x,x,x,0.8,0.3,0.6,-3.2,-3.0
O=C(Cc1ccccc1[N+](=O)[O-])OCC(=O)N1CCN(c2ccccc2)CC1,4.3,1.9%,5.6,6.1,-0.7,1.6,-5.2,0.7,6.5,-2.0
Cc1cc(C)nc(Nc2ncc(O)n2-c2ccccc2)n1,x,-0.2%,x,x,x,-3.8,6.1,0.4,-5.9,2.7
COc1ccc(CCN2CC(C(=O)NCc3cccc4[nH]ccc34)CCC2=O)cc1 (stereo not given),-1.0,0.3%,6.3,3.4,1.1,1.3,-5.8,0.2,-4.1,1.7
Cc1cc(=O)oc2c1c(C)nn2-c1nn[nH]n1,x,9.1%,x,x,x,-4.7,-5.2,0.2,-3.6,-4.8
COCC(=O)NNC(=O)c1ccccc1OC,-1.0,-5.0%,17.8,16.8,1.6,u,-2.5,0.2,3.3,-6.1
CCOC(=O)C1CCCN(C(=O)c2cc3cc(Br)ccc3oc2=O)C1 (stereo not given),-0.7,1.4%,-0.8,6.9,-0.9,-0.2,-7.7,0.1,-1.3,1.9
CC1CN2C(c3ccc(Cl)cc3)=CSC2=N1 (stereo not given),-2.8,x,6.6,5.4,1.2,3.8,-16.0,2.2,2.8,-11.5
CCn1cc(CN2CCC(C(=O)Nc3cccc(-c4cccc(F)c4)c3)CC2)cn1,-2.5,x,-0.8,-6.3,3.6,4.0,-1.9,0.2,-4.2,2.0
O=C(C1=NN[C@@H]2C(=O)N(c3cccc(C(F)(F)F)c3)C(=O)[C@H]12)C(c1ccccc1)c1ccccc1,x,0.5%,x,x,x,1.2,-9.2,0.6,-5.3,9.0
CCCCN(C(=O)Nc1ccccc1)C1CCS(=O)(=O)C1 (stereo not given),-0.4,7.1%,x,x,x,x,x,-0.2,3.2,x
O=C(Cn1c(COc2ccccc2)nc2ccccc21)Nc1cc(Cl)c(Cl)cc1Cl,x,-3.9%,x,x,x,-5.2,-5.3,2.4,14.6,39.3
CN1C(=O)C(C)(C)c2cc(S(=O)(=O)NCC3CCC(C(=O)NCc4ccc(F)cc4)CC3)ccc21 (stereo not given),-10.7,x,2.1,-5.4,-0.7,-3.2,1.3,-0.7,6.1,-3.6
Cc1ccc(NC(=O)c2cc(S(=O)(=O)N3CCOCC3)cn2C)c(C)c1,3.6,x,5.1,14.1,-4.5,0.7,1.6,0.4,2.1,-3.7
CCOC(=O)N1CCN(C(=O)COc2ccc([N+](=O)[O-])cc2)CC1,0.2,20.0%,15.2,4.2,0.3,-0.1,0.6,0.6,-9.4,-8.1
CCOC(=O)C(Cc1ccccc1)NC(=O)CCc1nnc2ccc(N3CCCCC3)nn12 (stereo not given),-0.5,x,-13.8,-2.5,-3.4,-1.9,-1.1,-1.1,0.4,u
Cc1ccc(C(=O)NNC(=O)C2CSC3(C)CCC(=O)N23)cc1 (stereo not given),2.5,3.0%,2.1,8.3,-2.1,u,5.6,-0.9,-4.7,6.1
Cc1cc2cc(C(=O)N3CCc4c([nH]c5ccccc45)C3c3ccccn3)ccc2o1 (stereo not given),-2.9,10.8%,2.5,-1.5,1.9,3.0,71.9,0.2,-6.5,-10.0
CCOC(=O)/C(C#N)=C\c1ccc(N2CCN(C)CC2)cc1,x,0.6%,x,x,x,21.4*,-8.0,-0.5,-14.3,10.9
Cc1ccc(S(=O)(=O)CCC(=O)OCC(=O)N2CC(=O)Nc3ccccc32)cc1,x,0.9%,x,x,x,-0.9,0.2,-0.4,-0.6,-1.1
CCOc1cccc(NC(=O)C2CC(=O)N(C)C2)c1 (stereo not given),3.8,2.1%,3.8,7.4,5.2,-6.7,-5.6,-0.1,x,-12.5
CN1CCCN(C(=O)C2CCCCC2)CC1,1.1,4.2%,16.8,13.3,2.2,-0.9,9.7,-0.3,-14.4,11.0
Cc1ccc(-c2ccc(S(=O)(=O)Nc3cccnc3)cc2)cc1,0.9,-7.1%,-11.1,-7.0,-1.9,0.7,7.0,-0.5,x,11.9
COc1ccc(F)cc1S(=O)(=O)n1nnc2ccccc21,-3.0,x,3.9,3.0,-2.2,-4.8,-2.9,0.2,-1.0,-1.7
CCOc1ccc(OCC)c(NC(=O)C2CCCN(c3nc(C)cc(C)n3)C2)c1 (stereo not given),6.1,u,x,x,x,-0.5,-5.4,-0.4,2.2,8.2
O=C(CC12CC3CC(CC(Br)(C3)C1)C2)NC1=NCCS1,1.7,-6.4%,-2.3,-10.5,-2.2,2.3,-16.3,0.1,1.2,4.8
O=C(NCc1ccc2c(c1)OCO2)c1ccccn1,x,10.1%,x,x,x,5.6,-3.0,1.8,-8.2,-20.1
O=C(CSc1nnnn1C1CCCC1)N1CCOCC1,0.9,14.9%,8.6,3.5,1.5,-1.6,46.6,0.2,-0.4,0.1
CCOc1ccc(Nc2nc(Cc3nnc(SCC(=O)c4ccc(C)cc4)o3)cs2)cc1,x,31.9%,x,x,x,0.0,16.5,-0.6,-0.3,-16.1
C[C@@H]1C=C(C(=O)NCc2nc3ccccc3[nH]2)O[C@H](OCCCCO)C1,x,x,x,x,x,1.6,-9.8,0.2,-8.5,-2.3
CCO[C@@H]1OC(C(=O)N2CCN(Cc3ccc4c(c3)OCO4)CC2)=C[C@H](c2ccc(Br)cc2)[C@H]1CCCO,-5.2,10.0%,-29.9,-46.2,-11.8,-4.4,22.7,-0.5,-1.9,42.5
COc1cccc(-c2nnc(NC(=O)c3cccc(F)c3)o2)c1,5.4,x,-52.7,-74.2,-13.9,-1.3,6.6,-3.8,8.4,49.9
Cc1cc(C)nc(Nc2n[nH]c(COc3ccc4ccccc4c3)n2)n1,x,-5.8%,x,x,x,4.0,-1.5,-0.5,3.9,14.6
Nc1nonc1C(=O)NCCNc1ccc([N+](=O)[O-])cc1,-1.2,2.8%,1.8,-9.9,0.8,1.7,-9.5,-0.2,0.2,-1.4
CC(C)c1c(O)cc(-c2ccncc2)n(-c2ccc(Cl)cc2)c1=O,x,6.1%,x,x,x,6.8,1.3,0.6,-4.2,1.4
CCOc1ccc(CNC(=O)c2nnc(CS(=O)(=O)c3ccccc3)o2)cc1OC,-6.1,x,2.2,-1.3,3.8,5.6,-5.0,0.3,-6.6,3.1
O=C(O)c1cccc(N2C(=O)c3cccc4c(Cl)ccc(c34)C2=O)c1,-3.0,6.4%,-1.7,-7.4,-0.5,1.3,15.6,-0.4,0.6,-7.2
CC(C(=O)Nc1ccccc1Oc1ccccc1)c1ccccc1 (stereo not given),x,5.7%,x,x,x,-3.3,-1.0,1.1,x,-0.1
Cc1ccc(OCCn2c(=S)[nH]c3c(N)ncnc32)cc1,-0.6,-2.7%,-37.2*,-12.9*,-4.5*,x,7.1,0.4,5.8,x
c1ccc(C[C@H]2CN=C(Nc3ccccc3)N2CCCC2CCCC2)cc1,x,x,x,x,x,2.7,45.1,0.2,-0.8,22.6
Cn1ccnc1C(O)(c1ccccc1)c1ccccc1,-1.5,x,5.8,0.9,-3.8,7.1,0.9,0.4,-6.8,-8.5
CCNC(=S)Nc1ccccc1-c1ccccc1,0.4,-4.2%,0.9,0.1,-3.2,-1.7,0.1,1.4,4.6,-1.8
COc1ccc(NC(=O)C/C(C)=N/NC(=O)c2cccs2)c([N+](=O)[O-])c1,0.8,7.8%,5.7,17.1,0.9,0.1,13.2,-0.1,0.6,1.7
CCC(C)Nc1nc2c(c(=O)n(C)c(=O)n2C)n1C (stereo not given),u,x,6.7,-0.7,-4.7,3.7,-2.6,0.7,-2.5,4.6
O=C(c1ccc(F)cc1)N1CCCC(C(=O)N2CCCCC2)C1 (stereo not given),-3.6,-5.4%,3.9,16.7,-2.9,-1.7,-19.3,0.6,-1.6,-5.0
CCN1CCCC1CNC(=O)Cn1cnc2sc(C)c(S(=O)(=O)N3CCC(C)CC3)c2c1=O (stereo not given),x,-3.4%,x,x,x,-0.9,-6.2,-0.3,-7.6,-3.2
Cn1c(=O)cc(SCC(=O)NCC2COc3ccccc3O2)c2ccccc21 (stereo not given),x,u,x,x,x,-0.6,17.5,-0.6,-7.1,-3.5
COc1cccc(C(=O)NCC(=O)OCC(=O)NC2CCCCC2)c1,-1.3,4.2%,6.3,3.8,2.1,x,x,0.1,1.2,x
O=C(NC1CCCC1)C(c1ccc(F)cc1)N(Cc1ccccc1)C(=O)c1csnn1 (stereo not given),0.6,x,-0.5,-32.9,-3.4,3.6,11.7,0.1,-4.7,0.3
CC(O)c1cccc(NC(=O)CCC(=O)O)c1 (stereo not given),-1.8,-1.7%,3.5,0.8,-1.6,0.6,-4.6,-0.4,-5.6,-20.0
CCCCn1c(N)c(N(CC(C)C)C(=O)c2ccc(N3C(=O)c4ccccc4C3=O)cc2)c(=O)[nH]c1=O,-0.4,x,9.9,8.5,2.4,2.2,2.2,0.4,-0.6,-3.1
c1ccc(CCN(Cc2ccccc2)C2CCN(C3CCCC3)CC2)cc1,1.0,-7.8%,-1.1,-8.5,2.8,0.4,8.0,1.7,0.0,33.4
COc1cc(/C=C2\SC(=O)N(CC(=O)Nc3cccc(C)c3)C2=O)ccc1OC(C)C(=O)O (stereo not given),0.0,x,-0.2,1.3,1.8,0.9,3.5,-0.3,2.1,-8.3
Cc1c(O)ccc2c(CN3CCN(Cc4ccccc4)CC3)cc(=O)oc12,0.6,-4.1%,-1.0,4.8,1.8,54.0*,5.4,0.0,-3.0,56.1*

# Screening data as filed in PubChem BioAssay.
